AID923: qHTS Assay for Allosteric/Competitive Inhibitors of Caspase-1: Spectroscopic Profiling in AFC Spectral Region; compound fluorescence, AFC spectral region (405/520 nm); almost no hit is shown here; Potency, µM (doses to about 57.5 µM), inactives show at the highest dose fluorescence increase, most hits filed as activators; actives 1.1% (n = 75,000); active = well fitted activation curve with a large enough effect; inconclusive = small, poorly fitted or top-dose-only effect;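 note: potency is the fitted concentration of half-maximal effect; 0% is about no effect; scaled to a free AFC standard on each plate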
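Titrations up to 57 uM read every 20 sec for 3 min (405/520 nm) with 50 nM caspase 1 and 5 uM Ac-WEHD-AFC, pH 7.5 HEPES buffer. Fluorescence-vs-time intercept gave baseline, scaled against on-plate AFC standard.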
A647 fluor: qHTS Assay for Spectroscopic Profiling in A647 Spectral Region; Compound fluorescence, A647 channel (570/671 nm), Tris buffer; max dye-equivalent concentration, M; 59,000 tested, under 10 active; active means above 1 µM dye equivalent; inconclusive means 0.1 to 1 µM; inactive means 0.1 µM or less;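 note: values scaled relative to a standard on each plate; highest value over a series up to 38 µM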
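Tris 100 mM pH 8.0; cpd + A647 stds pin-transferred; 15 min RT; CCD imager, ex 570/em 671. Output = A647-equivalent conc. per cpd conc.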
A488 autofl: qHTS Assay for Spectroscopic Profiling in A488 Spectral Region; compound autofluorescence, A488 spectral region, dye equivalency; hits give high values; max dye equivalency, M; actives 0.1% (n = 59,000); active = above 10 nM dye equivalent; inconclusive = 1 to 10 nM; inactive = 1 nM or less; about half of its hits are not listed in these tables;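 note: highest value over a series up to 38 µM; compound alone in buffer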
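Compound autofluorescence was read in 100 mM Tris pH 8.0 after 15 min at room temperature, ex 480 nm/em 540 nm. Intensities were converted to A488 dye-equivalent concentration using an on-plate six-point A488 standard curve.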
TSHR agonist: qHTS Assay for Agonists of the Thyroid Stimulating Hormone Receptor | HEK293-CNG-TSHR cells (CNG channel as cAMP sensor), membrane potential dye, cAMP | Potency, µM (top dose mostly 57.1 µM), without a hit: at the top dose activation, hits mostly activators | actives 0.48% (n = 73,000) | AID 926, 2007; active = well fitted activation curve of enough size with the parental cells flat; inconclusive = any curve in the parental cells; inactive = parental cells flat and receptor cells flat or falling; note: potency is the fitted concentration of half-maximal effect; % of control where 0% means no effect; weak receptor curves with flat parental cells got no call and are not listed
Target sequence (P16473 whole entry, looked up): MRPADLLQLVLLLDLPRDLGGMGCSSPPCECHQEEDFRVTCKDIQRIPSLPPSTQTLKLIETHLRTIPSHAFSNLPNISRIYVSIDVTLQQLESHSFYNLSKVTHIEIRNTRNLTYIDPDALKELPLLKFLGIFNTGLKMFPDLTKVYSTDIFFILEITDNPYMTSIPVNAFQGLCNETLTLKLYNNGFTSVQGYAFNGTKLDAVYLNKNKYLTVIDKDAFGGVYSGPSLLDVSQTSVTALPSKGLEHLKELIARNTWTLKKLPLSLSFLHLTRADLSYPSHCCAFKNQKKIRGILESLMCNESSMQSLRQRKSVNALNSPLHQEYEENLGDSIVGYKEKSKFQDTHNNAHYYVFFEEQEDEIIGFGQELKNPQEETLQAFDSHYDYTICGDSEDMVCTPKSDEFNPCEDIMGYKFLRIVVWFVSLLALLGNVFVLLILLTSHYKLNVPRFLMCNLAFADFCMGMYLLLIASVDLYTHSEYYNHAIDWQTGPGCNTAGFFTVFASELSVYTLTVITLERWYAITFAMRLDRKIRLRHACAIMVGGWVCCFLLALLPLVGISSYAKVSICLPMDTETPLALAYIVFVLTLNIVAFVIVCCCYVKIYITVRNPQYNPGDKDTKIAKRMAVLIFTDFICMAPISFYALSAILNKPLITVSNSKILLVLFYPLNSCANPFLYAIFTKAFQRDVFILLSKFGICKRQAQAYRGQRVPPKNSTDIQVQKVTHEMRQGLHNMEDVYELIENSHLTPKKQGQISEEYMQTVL
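cAMP rise detected as CNG-channel membrane depolarization by fluorescent dye (emission 590 nm), 30 min after compound, following 60 min dye loading containing 100 uM RO 20-1724 at room temperature. Cells: TSHR/CNG HEK 293, with parental CNG HEK 293 as control.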
Resorufin fluor: qHTS Assay for Spectroscopic Profiling in Resorufin Spectral Region; Compound fluorescence, resorufin region 547/598 nm, buffer; hits give high values; max dye-equivalent concentration, M; actives 0.04% (n = 59,000); active = above 10 nM dye equivalent; inconclusive = 1 to 10 nM; inactive = 1 nM or less; a few of its hits are not listed in these tables; note: highest value over a series up to 38 µM
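Dye-equivalent concentration values derive from comparing each well's 547/598 nm fluorescence against resorufin standards included on every plate. Incubation was 15 min at room temperature in 100 mM Tris, pH 8.0.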
* = called active by the depositor; i = inactive; ? = inconclusive; . = not tested or not shown; & = joins results of further samples; [ ] = dose if it differs, or a comment.

smiles | A488 autofl | A647 fluor | AID923 | Resorufin fluor | TSHR agonist
CCCn1c(-c2ccc(F)cc2)nc2c(NC(C)CN(C)C)nc(C)nc21 (stereo not drawn) | . | . | -1.6% | . | ?
Cc1cn(CC2COC(C)(C)O2)c(=O)[nH]c1=O (stereo not drawn) | i | 1.2e-09 | 1.0% | i | 2%
Cc1ccc(S(=O)(=O)N2CCC(C(=O)NCCN3CCCCCC3)CC2)cc1 | i | 7.3e-09 | -0.8% | i | .
COc1cc(NC(=O)CSCc2cnn(-c3ccccc3)c2-n2cccc2)cc(OC)c1 | i | 2.1e-08 | -1.9% | i | 23%
N#CCCN(CCC#N)C(=O)c1ccc(Cl)cc1 | i | 6.2e-09 | -2.6% | i | 5%
CCOC(=O)c1c(C)oc2c1c(C=NCc1ccccn1)c(O)c1ccccc12 | i | 4e-09 | 9.7% | i | -9%
CCCC(=O)Nc1cc(C)c(NC(=O)Cc2ccccc2)cn1 | i | 1e-09 | 3.6% | i | -2%
COc1ccc(C)cc1NC(=O)c1cc2c(CO)cnc(C)c2oc1=N | . | . | -2.8% | . | -2%
COc1cccc(CN2CCN(C(=O)c3cccc(F)c3)CC2)c1 | . | . | 0.1% | . | 7%[11.4 µM]
CCCCn1c(SCC(=O)N2CCCC2)nc2c1c(=O)n(C)c(=O)n2C | i | 4.7e-09 | -0.5% | i | 3%
CC(=O)NC(CCS(C)(=O)=O)C(=O)Nc1cccc(C(C)=O)c1 (stereo not drawn) | i | 3e-08 | 0.1% | i | ?
Cc1cccc(OCCCC(=O)Nc2ccc3c(c2)OCO3)c1 | . | . | -0.5% | . | ?
CC(C)Oc1ccccc1C1CC(=O)Nc2cc3c(cc21)OCCO3 (stereo not drawn) | i | 2.6e-08 | 0.3% | i | ?
Oc1c(CN2CCOCC2)cc(COCc2ccccc2)c2cccnc12 | i | 1e-09 | 0.3% | i | -2%
Cc1onc(-c2ccccc2Cl)c1C(=O)NCC1CCCO1 (stereo not drawn) | . | . | 2.8% | . | ?
O=C(NCc1cn2ccccc2n1)c1ccccc1 | i | 1e-09 | 3.6% | i | -2%
C=CC[C@@H]1C=C[C@@H](O/N=C\c2ccc(C(=O)N3[C@H](c4ccc(C)cc4)[C@@H](C)CC[C@H]3C(=O)OC)cc2)[C@@H](CO)O1 | . | . | -1.4%[11.5 µM] | . | 10%[11.4 µM]
CC1Cn2c(COc3ccccc3)nnc2S1 (stereo not drawn) | . | . | 2.0% | . | -4%
CC(=O)NC(CC(C)C)C(=O)NC(Cc1ccccc1)C(N)=O (stereo not drawn) | i | 1e-09 | -0.3% | i | -2%
Cc1cc(C)n(-c2ccc(C(=O)Nc3ccc(S(=O)(=O)NCc4ccco4)cc3)cc2)n1 | i | 3.5e-08 | 1.1% | i | 21%
O=c1n(Cc2cc3c(cc2Cl)OCO3)c(=O)n2n1CC[C@H]1/C(=N\OCc3ccccc3)[C@H]3O[C@@H]3[C@@H](O)[C@@H]12 | . | . | 0.3%[11.5 µM] | . | 4%[11.4 µM]
O=C(CC1COc2ccccc2O1)Nc1ccccn1 (stereo not drawn) | i | 1e-09 | -0.2% | i | 18%
CCOC(=O)CNC(=O)CSc1nc(NCc2ccccc2)nc(N(C)C)n1 | i | 2.2e-08 | -0.6% | i | 8%
Cc1nnc(NC(=O)Cc2ccc(OCc3c(C)noc3C)cc2)s1 | i | 1.7e-09 | 2.1% | i | 0%
CCOC(=O)C1=C(O)C(=O)N(Cc2ccccc2)C1 | . | . | 1.0% | . | 8%
O=C(O)[C@@H]1CCCN1Cc1cc2ccccc2c2ccccc12 | i | 5.7e-08 | 0.8%[11.5 µM] | i | 1%[11.4 µM]
O=C(C1CCCCC1)N1CCN(C(=O)C2CCCCC2)CC1 | . | . | 1.1% | . | ?
CCCc1nc2ccccc2c(=O)n1NC(=O)c1c(O)c2ccccc2[nH]c1=O | i | 6.6e-09 | -0.1% | i | -3%
CC(=O)OCC(=O)[C@]12OC(C)(C)O[C@@H]1C[C@H]1[C@H]3CC=C4C[C@@H](O)CC[C@]4(C)[C@H]3CC[C@]12C | i | 5.6e-08 | 0.3%[11.5 µM] | i | 5%[11.4 µM]
Cn1c(=O)c(CCc2ccccc2)nc2cnc(N3CCNCC3)nc21 | i | 3.8e-08 | -1.4% | i | 20%
CCOC(=O)c1[nH]c(C(=O)O)c(CCC(=O)OC)c1C | i | 4.4e-09 | 1.0% | i | -7%
CCOC(=O)N1CCN(C(=O)c2ccc(C#CC3(O)CCCCC3)cc2)CC1 | i | 1.8e-08 | 2.2% | i | -11%
Cc1cc(NC(=O)CSc2ccc3nnc(-c4cccnc4)n3n2)no1 | . | . | -1.0% | . | 9%
O=C(Nc1ncc(Br)s1)C(Cc1ccccc1)n1cccc1 (stereo not drawn) | . | . | 2.7% | . | 9%
O=P(OC1CCS(=O)(=O)C1)(c1ccccc1)c1ccccc1 (stereo not drawn) | i | 1.5e-08 | 1.0% | i | 5%
Clc1ccc(OCc2nnc(-c3ccccc3Br)o2)cc1 | i | 1.3e-08 | 1.9% | i | ?
O=C(O)CCc1ccc(-c2ccc(Br)cc2)n1Cc1ccco1 | i | 2.7e-08 | 3.3% | i | 2%
Cc1ncc2c(c1O)COP(=O)(O)OC2 | . | . | -2.1% | . | 5%
Cc1ccc2cccc(Oc3nnnn3-c3ccccc3)c2n1 | i | 4e-08 | -1.1% | i | ?
O=C(Nc1cccc(F)c1)N1CCC2(CC1)CCN(C(=O)c1cc(C(F)(F)F)cc(C(F)(F)F)c1)CC2 | i | 1e-09 | -1.0% | i | 24%
C/C(=C(\C#N)C(=O)NCCN1CCOCC1)N(C)C | i | 3.6e-08 | 0.5% | i | -11%
Cc1c(C(=O)Nc2ccccc2)oc2c1C(=O)CC(C)(C)C2 | i | 1e-09 | 4.8% | i | -2%
O=C(NC1CCCC1)C1CC(c2ccc(F)cc2)=NO1 (stereo not drawn) | i | 7.8e-09 | 3.4% | i | -4%
O=C1C(C=Nc2ccccc2O)=C(O)c2ccccc21 | i | 1e-09 | -1.5% | i | -10%
O=C(NCn1ccc(=O)[nH]c1=S)c1ccccc1 | i | 2.2e-09 | 0.2% | i | 5%
Cc1nc(-c2ccccc2)nc2[nH]c(=O)n(-c3ccccc3)c(=O)c12 | i | 6.5e-09 | -1.3% | i | -4%
CSCCC(NC(=O)c1ccco1)C(=O)OC(C)C(=O)NC(=O)NC1CCCCC1 (stereo not drawn) | i | 1e-09 | -0.8% | i | 13%
CC1CC(C)CN(CCCNC(=O)C2CCC(=O)N2C2CCCC2)C1 (stereo not drawn) | i | 1e-09 | -0.9% | i | -2%
Oc1ccc(OCc2ccccc2)cc1 | i | 5.4e-09 | 2.3%[25.7 µM] | i | -3%[25.6 µM]
C=CCc1c(C)nc(SCC(=C)C)[nH]c1=O | . | . | 3.3% | . | 14%[11.4 µM]
COCCNC(=O)CN1CCC(n2c(C)nc3cc(C(F)(F)F)ccc32)CC1 | i | 1.1e-08 | 0.7% | i | -2%
COc1cccc(-c2nc(CS(=O)CC(=O)NCc3ccccc3Cl)c(C)o2)c1 (stereo not drawn) | . | . | -0.7% | . | ?
Clc1ccc(Cc2nn3c(Cn4nnc5ccccc54)nnc3s2)cc1 | i | 1e-08 | -1.7% | i | .
COC(=O)c1[nH]c2ccc(C)cc2c1NC(=O)CN1CCN(c2ccccc2)CC1 | i | 7.4e-09 | -1.1% | i | 8%
COc1ccc(Cl)cc1N(CC(=O)Nc1ccccc1C(=O)NCc1ccco1)S(C)(=O)=O | i | 2.8e-09 | 0.4% | i | .
NCCSCc1ccccc1Cl | i | 6e-09 | -1.6%[11.5 µM] | i | -5%[11.4 µM]
COc1cc2[nH]c(=S)n(Cc3ccc(C)o3)c(=O)c2cc1OC | i | 6.3e-09 | 0.6% | i | 1%
Cc1ccccc1OCCCCCn1ccnc1 | . | . | 12% | . | 24%
O=C1[C@@H]2[C@H]3[C@H](O)[C@H](O)C/C(=N/OCc4ccccc4)[C@@H]3CC[C@H]2C(=O)N1c1ccc(F)cc1F | . | . | -1.5%[11.5 µM] | . | -26%[11.4 µM]
N=C(N)SCCc1ccccn1 | i | 2.4e-08&1e-08 | 1.0%&1.5%[11.5 µM] | i | 2%&5%[11.4 µM]

Two successive records out of the list so far:
smiles | A488 autofl | A647 fluor | AID923 | Resorufin fluor | TSHR agonist
C/C(=C(\C#N)C(=O)NCCN1CCOCC1)N(C)C | i | 3.6e-08 | 0.5% | i | -11%
Cc1c(C(=O)Nc2ccccc2)oc2c1C(=O)CC(C)(C)C2 | i | 1e-09 | 4.8% | i | -2%

Next part:
smiles | A488 autofl | A647 fluor | AID923 | Resorufin fluor | TSHR agonist
O=C(COCCOCC(=O)N(c1ccccn1)C1CCCCC1)N(c1ccccn1)C1CCCCC1 | i | 6.2e-09 | -0.9% | i | 3%
O=C(O)[C@@H]1[C@@H]2C[C@@H]3[C@@H](OC(=O)[C@@H]31)[C@H]2Br | i | 1.6e-08 | 1.3%[11.5 µM] | i | -3%[11.4 µM]
Cc1ccc2cc3cc(C(=O)N4CCN(C(=O)c5ccco5)CC4)sc3nc2c1 | i | 3.2e-08 | 1.2% | i | 3%
CC(=O)Nc1ccc(N2CCN(Cc3ccccc3F)CC2)cc1 | i | 1.3e-09 | -1.8% | i | -8%
O=C(c1cccc(F)c1)N1CCC2(CCCN(Cc3ccncc3)C2)CC1 | i | 2.6e-08 | -0.7% | i | 15%
CCCCc1nnc(NC(=O)C=C(C)C)s1 | i | 1e-09 | -2.9% | i | .
Oc1ccc2[nH]ccc2c1 | i | 4.4e-08 | 0.7% | i | -2%
CCOC(=O)CCn1nc(-c2ccc(Cl)cc2)cc1N | i | 1.5e-08 | 0.5% | i | ?
Cc1cccc(C(=O)NC2CC(C)(C)NC(C)(C)C2)c1 | i | 1.4e-09 | 0.8% | i | -10%
Cc1cc(NC(=O)c2ccc(S(=O)(=O)N3CCOCC3)cc2)nc2c1c(=O)oc1ccccc12 | i | 1e-09 | 1.8% | i | 10%
O=C(Cn1ncc2ccccc21)N1CCc2ccccc21 | . | . | -0.5% | . | -16%
CN1CCCC[C@@H]1CCN1CCCCC1 | i | 1e-09 | 0.4%[11.5 µM] | i | -2%[11.4 µM]
O=C(c1ccc(Cn2c(=O)[nH]c3ccccc3c2=O)cc1)N1CCN(c2ccc(Cl)cc2)CC1 | i | 2e-09 | 1.0% | i | 12%
CC(=O)Nc1ccc(OC(=O)c2cccnc2)cc1 | i | 1e-09 | -1.1% | i | 3%
O=C1c2ccccc2-c2c1nc1c([n+]2[O-])CCCC1 | i | 3.6e-08 | -1.1% | i | -3%
CC(C)CCn1c(N2CCOCC2)nc2c1c(=O)n(CC(N)=O)c(=O)n2C | i | 8.5e-09 | 2.1% | i | -8%
O=C(Nc1sccc1C(=O)NCc1ccco1)c1cccnc1 | i | 1.2e-08 | -0.1% | i | 0%
CCOC(=O)N1CCC(NC(=O)c2cccn3c(=O)c4cc(Br)ccc4nc23)CC1 | i | 3.4e-08 | 5.3% | i | 2%
O=C1OC(N2CCN(Cc3ccccc3)CC2)c2ccccc21 (stereo not drawn) | i | 1e-09 | 5.1% | i | -4%
Cc1cc(C)n(-c2ccc(C(=O)Nc3ccccn3)cc2)n1 | i | 2.6e-09 | 3.4% | i | -6%
Cn1c(Cn2cnc(Cl)c2Cl)nc2ccccc21 | i | 9.9e-08 | . | i | .
Cc1nn(C)c(C)c1S(=O)(=O)N1CCC(C(=O)NC2CCCCC2)CC1 | i | 1.3e-08 | 2.3% | i | 2%
CCOC(=O)C1CCCN(C(=O)CN2C(=O)c3ccccc3C2=O)C1 (stereo not drawn) | . | . | -0.5% | . | 5%[11.4 µM]
OCCCSCCO | i | 2.4e-08 | 1.8%[11.5 µM] | i | -3%[11.4 µM]
CCOc1ccccc1OCCCC(=O)NC1=NCCS1 | i | 3.2e-08 | -3.6% | i | -2%

From PubChem

Some of the compounds tested. The share of hits here may be higher or lower than overall.
